Screens deposited in PubChem BioAssay by Center for Chemical Genomics, University of Michigan.
HIV TAR-Tat – HIV-1 TAR-Tat binding disruption; HIV-1 TAR RNA, Tat peptide displacement FRET; stronger effect = higher value; 100,000 tested, 0.6% active; AID 1259389; z-score (test concentration not listed);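 note: score is relative to mean and SD of negative controls; some compounds called inactive have numbers as strong as hits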
CDC25B-CDK2 inh – human CDC25B-CDK2/CyclinA binding inhibition | HTRF CDC25B-CDK2/CyclinA binding, anti-His/anti-Flag; stronger effect = higher value | z-score (no concentration beside the values) | 94,000 tested, 0.72% active;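 note: score is relative to mean and SD of negative controls; strong numbers were not always called active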
Numbers without * were called inactive; · = no result given.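 Rule for the calls: active = z-score from 3 up in half or more of its runs; inactive = the rest.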

SMILES	HIV TAR-Tat	CDC25B-CDK2 inh
CCCn1nc(-n2cnnc2)c(NS(=O)(=O)c2ccccc2Cl)c1C	2.5	-2.9
S=C1NNC2(CC3CC2C2CCCC32)NN1 (stereo not drawn)	·	-2.5
Cc1noc2ncnc(N3CCC(C(=O)N4CCCC4)CC3)c12	2	·
COCCN1CCn2c(nc3cc(Nc4nnc(C)c5ccccc45)ccc32)C1	1.6	14*
CC1CCC(NC(=O)C2(C)Cn3c(cc4occc43)C(=O)N2CCCN2CCCCC2C)CC1 (stereo not drawn)	0.51	·
COc1ccccc1-c1nnc(SCCOc2ccccc2C)o1	0.57	0.93
COc1ccc(-c2noc(CCc3ccccc3)n2)cc1	1.2	1.2
CCOCCCNC(=O)CN(C)c1nnc(N2CCCC2=O)s1	-0.22	-2.4
COC(=O)C1=C(c2ccccc2)c2ccccc2S(=O)(=O)N1C	-1.2	-1.3
CC1=C(C(=O)Nc2ccccc2)C(c2ccccn2)n2nnnc2N1 (stereo not drawn)	-0.53	-0.58
CCCC1c2cccn2CCN1C(=O)Nc1cc(Cl)c(OC)cc1OC (stereo not drawn)	-0.46	·
CC(NC(=O)CCCc1nnc2n(C)c(=O)c3sccc3n12)c1ccc2c(c1)OCCO2 (stereo not drawn)	-2.3	·
O=C(O)c1cccc(CN2C(=O)C3CCCN3C(=O)c3ccccc32)c1 (stereo not drawn)	1.6	-0.32
O=C(c1nn2c(C(F)(F)F)cc(-c3cccs3)nc2c1Cl)N1CCOCC1	-0.12	·
Cc1ccccc1Nc1cc(C)c2c(O)cccc2n1	-0.09	1.2
CCOc1ccc(-n2nc3ccc(N)cc3n2)cc1	4.5	-3.2
CC(=O)OC1(C(F)(F)F)Oc2cc(C)ccc2NC1=O (stereo not drawn)	·	0.97
O=C(CN1CCN(c2ccc(F)cc2)CC1)c1ccc2c(c1)OCO2	·	-1.5
CCOC(=O)C1=C(C)Nc2ncnn2C1c1cn(-c2ccccc2)nc1-c1cccs1 (stereo not drawn)	·	-0.58
CC1(C)Cc2c(sc3nc(SCC(=O)c4ccc(Br)cc4)[nH]c(=O)c23)CO1	-0.14	-5.5
FC(F)(F)c1ccncc1-c1ncc(-c2ccc(Cl)cc2)o1	·	-1.8
O=C(Nc1ncccn1)C1(c2cccs2)CCOCC1	-1.5	·
CCSc1nc(-c2ccccc2Cl)nc2c1Cc1c(CO)cnc(C)c1O2	-2.6	·
Cc1oc(-c2ccccc2F)nc1Cn1cccc1C1=NC(c2ccccc2)CO1 (stereo not drawn)	·	-2.7
C=CCn1c(SCC(=O)Nc2ccc(Cl)cc2)nc2c([nH]c3ccccc32)c1=O	1.3	·
CN(C)CCNC(=O)c1cnn2c3c(cnc12)CCCCCC3	0.06	·
COc1cc(O)c2c(c1)C(=O)c1cc(C)cc(O)c1C2=O	1.8	·
COC(=O)c1ccc(CN)cc1	·	-1.1
Cc1ccc(C2C=C(c3ccccc3)Nc3nc(NS(=O)(=O)c4ccccc4)nn32)cc1 (stereo not drawn)	·	-0.62
CCSc1nc2sc3c(c2c(=O)n1-c1ccccc1)CCN(C)C3	-0.81	-0.53
CC1CN(C(=O)CCC(=O)O)c2ccccc2O1 (stereo not drawn)	2.6	-0.75
COc1ccccc1Cn1c(COc2ccccc2)nc2ccccc21	·	-0.69
COC(=O)c1cccc(N=C(N)N=C(N)N)c1	·	-1.1
Oc1ccc2ccccc2c1CN1CCCCC1	·	-0.12
Cc1c(C(=O)Nc2ccc3c(c2)OCCO3)sc2nc3n(c(=O)c12)CCCC3	1	·
S=C(NC1CCCCC1)N1CC2CCC(CC2)C1	·	-0.12
CN1C(=O)c2ccccc2C(C(=O)NC2CCCCCC2)C1c1c[nH]c2ccccc12 (stereo not drawn)	·	-1.6
C=CCN1C(=O)C(O)(CC(=O)c2ccccc2O)c2cc(Br)ccc21 (stereo not drawn)	·	-1.2
Cc1c(C(=O)NCCCOC(C)C)sc2nc3n(c(=O)c12)CCCC3	-0.97	·
O=c1oc2cccnc2n1CCS(=O)(=O)c1ccc(F)cc1	·	-1.1
Cc1ccc2[nH]cc(NC(=O)NCCN(C)C)c(=O)c2c1	0.17	-0.46
CCCCCOCC1CC2(CC(C)(c3csc(Nc4ccccc4)n3)OC2=O)C(=O)O1 (stereo not drawn)	3.9	0.06
O=C(Nc1ccc(Br)cc1F)N1CCC(CN2CCOCC2)CC1	0.7	·
CS(=O)(=O)Nc1cccc(F)c1	0.11	-1.5
S=C(NCCc1ccccn1)c1ccccc1	·	-1.3
COc1cc(OC)c2c(c1)OCC(c1ccc(OC)c(OC)c1)C2 (stereo not drawn)	0.48	·
O=C(Cn1cncn1)c1ccccc1	2.6	-0.69
COc1ccc(N(C)S(=O)(=O)c2ccc3c(c2)NC(=O)CO3)c(OC)c1	3.5	·
O=C(CN1C(=O)CCc2cc(S(=O)(=O)N3CCCCC3)ccc21)NC1CCCC1	-1.8	·
COCCn1c(N2CCNCC2)nc2c1c(=O)n(C)c(=O)n2C	0.59	-1.2

Following part.
SMILES	HIV TAR-Tat	CDC25B-CDK2 inh
Cc1cc(=O)n2nc(N3CCCC3C(=O)N3CCCCC3)sc2n1 (stereo not drawn)	1.8	0.64
Cn1nnc2c(NCc3ccco3)ncnc21	2.1	·
CC(C)(C)c1nc(CN2CCOCC2)ccc1O	·	-0.01
CC1CCCN(C2CCN(Cc3ccccn3)CC2)C1 (stereo not drawn)	-0.83	-0.07
Cc1ccsc1CN1CCc2nc(N3CCC(C)CC3)ncc2C1	-2.1	·
COc1cc(-c2ncnn2-c2sc3c(c2C#N)CCCCC3)ccc1O	0.82	0.79
CCc1nn(CC(=O)N(CC)Cc2ccccc2)c(=O)c2cc3occc3n12	1.3	-0.09
Cc1ccc(CNC(=O)c2cnc(N3CCN(C)CC3)nc2C)o1	2.6	·
CN(C(=O)c1ccc(F)cc1)C(c1cccs1)c1c[nH]c2ccccc12 (stereo not drawn)	0.65	-0.64
Cc1ccc(-n2nc(C)cc2N)cc1	-0.4	-1.8
Cc1nn(C)c(NC(=O)Nc2ccc(Cl)cc2)c1C1=CCCCC1	1.9	-2.1
Cc1c(C(=O)N2CCCC2)oc2ccc3c(c12)C(O)CC1(CCCCC1)O3 (stereo not drawn)	1.2	·
CCc1noc2ncnc(N3CCCC(C(=O)NC(C)C)C3)c12 (stereo not drawn)	2.3	·
Cc1ccc(-n2nc3c(=O)n(CC(=O)O)nc(C)c3c2C)c(C)c1	2.3	·
Fc1ccccc1-c1nc2ncccn2c1NCc1ccc(Cl)cc1	0.31	·
NC(=O)c1sc(-c2ccccc2)cc1NC(=O)c1ccco1	·	-1.4
O=C(COc1ccc(Br)cc1)N1CCC(c2nc3ccccc3o2)CC1	-0.06	0.99
O=c1[nH][nH]c(=O)c2ccccc12	·	-1.5
Cc1ccc(C)c(N2CCN(S(=O)(=O)c3c(C)nc4sc(C)cn4c3=O)CC2)c1	-0.05	·
COc1ccc(-c2onc(C)c2C)cc1S(=O)(=O)NCc1cccs1	-1.2	·

Reformatted with bars between the fields: entries from further up.
molecule | HIV TAR-Tat | CDC25B-CDK2 inh
COCCn1c(N2CCNCC2)nc2c1c(=O)n(C)c(=O)n2C | 0.59 | -1.2
Cc1cc(=O)n2nc(N3CCCC3C(=O)N3CCCCC3)sc2n1 (stereo not drawn) | 1.8 | 0.64
Cn1nnc2c(NCc3ccco3)ncnc21 | 2.1 | ·
CC(C)(C)c1nc(CN2CCOCC2)ccc1O | · | -0.01
CC1CCCN(C2CCN(Cc3ccccn3)CC2)C1 (stereo not drawn) | -0.83 | -0.07
Cc1ccsc1CN1CCc2nc(N3CCC(C)CC3)ncc2C1 | -2.1 | ·
COc1cc(-c2ncnn2-c2sc3c(c2C#N)CCCCC3)ccc1O | 0.82 | 0.79
CCc1nn(CC(=O)N(CC)Cc2ccccc2)c(=O)c2cc3occc3n12 | 1.3 | -0.09
Cc1ccc(CNC(=O)c2cnc(N3CCN(C)CC3)nc2C)o1 | 2.6 | ·
CN(C(=O)c1ccc(F)cc1)C(c1cccs1)c1c[nH]c2ccccc12 (stereo not drawn) | 0.65 | -0.64
Cc1ccc(-n2nc(C)cc2N)cc1 | -0.4 | -1.8
Cc1nn(C)c(NC(=O)Nc2ccc(Cl)cc2)c1C1=CCCCC1 | 1.9 | -2.1
Cc1c(C(=O)N2CCCC2)oc2ccc3c(c12)C(O)CC1(CCCCC1)O3 (stereo not drawn) | 1.2 | ·
CCc1noc2ncnc(N3CCCC(C(=O)NC(C)C)C3)c12 (stereo not drawn) | 2.3 | ·
Cc1ccc(-n2nc3c(=O)n(CC(=O)O)nc(C)c3c2C)c(C)c1 | 2.3 | ·
Fc1ccccc1-c1nc2ncccn2c1NCc1ccc(Cl)cc1 | 0.31 | ·
NC(=O)c1sc(-c2ccccc2)cc1NC(=O)c1ccco1 | · | -1.4
O=C(COc1ccc(Br)cc1)N1CCC(c2nc3ccccc3o2)CC1 | -0.06 | 0.99

Continuation.
SMILES	HIV TAR-Tat	CDC25B-CDK2 inh
Cc1cc(C)n(C(C)C(=O)Nc2ccc(F)cc2)c(=O)n1 (stereo not drawn)	0.42	-1.1
CC(C)c1ccc(/C=C/c2cc(=O)n3ccsc3n2)cc1	0.31	-0.95
CCc1nn(CC(=O)NCCCN2CCN(C)CC2)c(=O)c2cc3sccc3n12	-0.55	-0.37
CC(=O)NC1=NN(C(C)=O)C(c2ccc(C)cc2)S1 (stereo not drawn)	2.1	-0.4
COc1ccc(OC)c(CN2CCc3nc(N4CCN(c5ccc(F)cc5)CC4)ncc3C2)c1	0.72	·
Cn1c(SCCS(=O)(=O)c2ccc(OC(F)(F)F)cc2)nnc1C(F)(F)F	·	-1.7
CCC(C)NC(=O)c1csc2c1CCCC2 (stereo not drawn)	-1.5	-2.2
O=C(O)c1cccc(CN2C(=O)SC(Nc3ccc(Br)cc3)C2=O)c1 (stereo not drawn)	·	-0.33
COC(=O)C(C(C)C)N1C(=O)C2C3C=CC(C3)C2C1=O (stereo not drawn)	·	-1.4
Cn1c(=O)c2c(SCC(=O)NC3CCCC3)nc(-c3cccc(Cl)c3)nc2n(C)c1=O	0.25	·
CCOc1ccc(CCNS(=O)(=O)c2c(C)nc3sc(C)cn3c2=O)cc1OCC	-0.53	·
CCN1CCc2c(sc(-n3cccc3)c2CNC(=O)Nc2ccccc2Cl)C1	-6.8	·
CN(C)CCNC(=O)CN1C(=O)C2CCCCN2c2ccc(C(=O)N(C)C)cc21 (stereo not drawn)	0.73	·
NNC(=O)CSc1ccccc1[N+](=O)[O-]	·	-2.3
Cc1cn2c(=O)c(S(=O)(=O)NCC3CCCO3)c(C)nc2s1 (stereo not drawn)	-0.35	·
Cn1c(=O)cc(OCC(=O)N2CCC(N3CCCCC3)CC2)c2ccccc21	·	1.6
O=C(C1CCC1)N1CCC(Oc2nnc(-c3ccccc3)o2)CC1	0.47	-0.63
O=C(Nc1nc2ccc(F)cc2s1)c1csnn1	0.35	-0.05
CCCn1c(C)ccc(-c2noc(CCCC(=O)NC3CCCC3)n2)c1=O	0.19	-0.9
N/C(=N\OC(=O)Nc1ccc(Cl)cc1)c1cccc(CS(=O)(=O)c2cccs2)c1	·	-0.64
CCC(C)N1CC23C=CC(O2)C(C(=O)O)C3C1=O (stereo not drawn)	0.5	-0.62
CN(C(=O)Cn1nc(Cc2ccncc2)c2ccccc2c1=O)c1ccc(Br)cc1	0.86	-0.91
NC(=O)c1c(C(F)(F)F)cc(-c2ccccc2)nc1NCCO	·	0.11
CCC1(C)CC(=O)c2c(ccc3oc(C(=O)NCCC(C)C)c(C)c23)O1 (stereo not drawn)	-0.02	-0.91
Cc1ccc(N2C(=O)C3C4c5ccccc5C(CO)(c5ccccc54)C3C2=O)cc1 (stereo not drawn)	0.76	-0.32
Cc1ccc(-c2noc(-c3nnn(-c4ccc(F)cc4)c3C)n2)cc1	1.9	·
CCN(CC)C(=O)Cn1c(=O)c2ccccc2n2c(=S)sc(-c3ccccc3)c12	1.5	0.25
CCOc1ccc(-c2nc(CN3CCNCC3)c(C)o2)cc1	1.8	·
CCC(C)NC(=O)NCc1c(-n2cccc2)sc2c1CCN(C)C2 (stereo not drawn)	-6.2	2.9
Cc1cc(=O)n2nc(-c3cccs3)nc2n1CC(=O)N1CCCC1	-0.69	-0.44
COC(=O)c1ncn2c1C(=O)N(C1CC1)C(C)(C(=O)NCCC(C)C)C2 (stereo not drawn)	0.6	·
Cc1cc(C)c(NS(=O)(=O)c2ccc(-c3ccc(=O)[nH]n3)s2)c(C)c1	-0.95	·
CC(C)(C)c1ccc(S(=O)(=O)Nc2cccc(-c3nnc(-c4ccccc4)o3)c2)cc1	1.9	·
CCc1ccc(C2C(C(=O)OCCOC)=C(C)NC3=C2C(=O)CCC3)cc1 (stereo not drawn)	0.26	-0.12
Cc1noc(C)c1S(=O)(=O)NCc1cccn1Cc1cccc(F)c1	-0.64	·
CCOc1ccc(-c2csc(-c3nc(-c4cccs4)cs3)n2)cc1	0.71	·
Fc1cc(F)cc(-c2noc3ncnc(N4CCN(c5ncccn5)CC4)c23)c1	0.67	·
Cc1nnc(N2C(=O)c3oc4ccccc4c(=O)c3C2c2cccc(Br)c2)s1 (stereo not drawn)	0.98	-1.2
CCOC(=O)C1CCN([C@H]2CS(=O)(=O)C[C@@H]2S(=O)(=O)c2ccc(OC)cc2)CC1	2.6	-1.9
CC1=C(c2ccc(F)cc2)S(=O)(=O)NC1=NCCN1CCCCC1C (stereo not drawn)	0.84	·
CC1CCCC(C)N1c1nnc(NC(=O)Nc2ccc(F)cc2)s1 (stereo not drawn)	0.68	-2.9
OCc1ccccc1O[C@@H]1O[C@H](CO)[C@@H](O)[C@H](O)[C@H]1O	1.6	·
Cc1c(C(=O)Nc2nonc2-c2ccc(OC(C)C)cc2)oc2ccc(F)cc12	0.71	-0.29
CCN(CC)CCNc1cc(C)nc(C)n1	0.81	0.43
COc1ccc(/C=C/c2nc(C#N)c(N3CC(C)OC(C)C3)o2)cc1OC (stereo not drawn)	-2.1	-1.4
Cn1c(=O)[nH]c(=O)c2c1nc(Br)n2CC(O)COc1ccc2ccccc2c1 (stereo not drawn)	-1.1	-0.36
